Compound activity deposited in PubChem by several laboratories.
E coli growth: blocks Escherichia coli growth; OD600, 23 h; stronger effect = lower value; OD600 absorbance (test concentration not listed); 330,000 compounds, 0.21% hits; AID 1053175;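 active means OD600 absorbance below the run mean of sample wells minus 3.6 SD, in any replicate, cut at about 0.56 in these data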;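 further: stock transfer was 300 nL into about 60 µL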
HNF4A DNA FP: change in binding of human HNF4 alpha to DNA | P41235 | HNF4a-FITC DNA binding, fluorescence polarization, 1 h | activity change, % at 10 µM | 360,000 compounds, 0.3% hits | AID 1224865; in the data active means activity change above about 30%, passing the limit was not always enough;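 further: controls were the assay level and a saturating level of protein; the project sought stronger binding though the title names inhibitors; some compounds called inactive have numbers as strong as hits; positive values seem to mean higher polarization but the record does not say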
Vif TR-FRET: HIV-1 Vif–A3G interaction blockers – biochemical, TR-FRET, GST-Vif 1-94, biotin-A3G peptide, dose response retest, primary screen (AID 1117319). TR-FRET GST-Vif / biotin-A3G peptide binding; higher % means a stronger effect; test concentration not given here; strong numbers were not always called active. inhibition, %, or IC50 in µM where a hit was titrated. 260,000 compounds, 0.57% hits;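 active means above the screen mean plus three standard deviations and confirmed in dose response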;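 further: Vif residues 1-94 fused to GST binding biotinylated APOBEC3G peptide 110-148; 0% = full assay without inhibitor and 100% = GST in place of GST-Vif; retest series ran down from 100 µM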
Ecoli rRNA inh: selective bacterial rRNA inhibition in E. coli; E. coli WT GFP vs humanized-ribosome RFP mutants, fluorescence, 24 h; stronger effect = lower value; DMSO median 0, no signal -100; GFP signal change (wild-type ribosome), % (concentration not given with the values); 350,000 compounds, 1.6% hits; AID 720706;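 active means significant combined selectivity score with lowered wild-type GFP, culture density cut under 30%, mutant RFP and density less affected; inactive means any of these conditions unmet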; further: one replicate is shown; some compounds called inactive have numbers as strong as hits
ALR H2O2 inh: human ALR oxidase inhibition via reduced H2O2; inhibition, % (concentration not given with the values); purified ALR, DTT oxidation, H2O2 HRP-luminol luminescence; 290,000 compounds, 3.8% hits;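 active means mean and each replicate at 75% or more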;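 further: stock transfer was 7.5 nL into about 7.5 µL; 0% = neutral wells and 100% = wells with inactivated enzyme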
Target sequence (P55789 whole entry, looked up): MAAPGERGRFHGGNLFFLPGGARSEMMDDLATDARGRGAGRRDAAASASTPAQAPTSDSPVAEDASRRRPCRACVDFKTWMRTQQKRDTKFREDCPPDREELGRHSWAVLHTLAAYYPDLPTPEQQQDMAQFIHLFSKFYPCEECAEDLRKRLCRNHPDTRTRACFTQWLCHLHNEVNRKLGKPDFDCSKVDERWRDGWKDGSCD
AF4-AF9 inh: inhibitors of human MLL-AF4/AF9 interaction; inhibition, % at 10 µM; AID 651704; 350,000 compounds, 0.47% hits; AlphaScreen, biotin-AF4 peptide binding to FLAG-AF9; P42568;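 active means every replicate reaching a set inhibition limit, whatever the replicate mean, cut at about 25% in these data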;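 further: 0% = plate neutral control median and 100% = total signal loss; the record names both 10 and 1 µM as test concentration; the first replicate is given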
Target sequence (P42568 whole entry, looked up): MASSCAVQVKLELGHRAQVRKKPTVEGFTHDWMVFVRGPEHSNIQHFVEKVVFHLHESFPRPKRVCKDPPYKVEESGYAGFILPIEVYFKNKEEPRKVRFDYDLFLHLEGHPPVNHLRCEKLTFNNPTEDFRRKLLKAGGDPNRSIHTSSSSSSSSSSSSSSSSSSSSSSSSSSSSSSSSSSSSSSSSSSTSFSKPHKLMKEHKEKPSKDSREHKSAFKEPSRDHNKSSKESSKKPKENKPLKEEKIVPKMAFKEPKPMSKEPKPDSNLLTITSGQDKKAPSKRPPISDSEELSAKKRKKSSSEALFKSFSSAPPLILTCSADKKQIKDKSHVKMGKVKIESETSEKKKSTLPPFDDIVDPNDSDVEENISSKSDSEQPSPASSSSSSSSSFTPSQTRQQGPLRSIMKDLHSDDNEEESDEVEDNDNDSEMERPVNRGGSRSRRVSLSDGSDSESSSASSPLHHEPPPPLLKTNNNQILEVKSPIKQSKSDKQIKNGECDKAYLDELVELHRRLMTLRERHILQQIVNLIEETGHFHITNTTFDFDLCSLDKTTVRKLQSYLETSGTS
FGF22 binding: shifts melting point of recombinant human FGF22. 340,000 compounds, 1.5% hits. calls only at 9.99 µM. recombinant FGF22 thermal shift, SYPRO orange fluorescence; percent of sucrose octasulfate shift, DMSO zero;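 active means melting point raised past a set limit in the mean and every replicate; three in four hits are not shown here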
Target sequence (Q9HCT0 whole entry, looked up): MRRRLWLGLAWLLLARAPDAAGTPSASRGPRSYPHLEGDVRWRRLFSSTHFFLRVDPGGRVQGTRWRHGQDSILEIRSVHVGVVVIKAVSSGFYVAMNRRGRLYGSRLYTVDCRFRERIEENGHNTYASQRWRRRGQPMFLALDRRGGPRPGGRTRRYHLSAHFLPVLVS
Ecoli rRNA inh OD600: also measured in Ecoli rRNA inh; calls as there; OD600 change, %; measured here: OD600 growth;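 optical density of the mix in the first replicate; 0 = DMSO median and -100 = no signal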
Ecoli rRNA inh RFP: also measured in Ecoli rRNA inh; calls as there; RFP signal change, %; measured here: RFP humanized mutant strains;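 first replicate; 0 = DMSO median and -100 = no signal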
An asterisk follows results filed as active; i = inactive; nt = no result given; + = active, no number; & = joins results of further samples. This is a subset; the hit share may differ from the screen's.

SMILES	E coli growth	HNF4A DNA FP	Vif TR-FRET	Ecoli rRNA inh	Ecoli rRNA inh OD600	Ecoli rRNA inh RFP	ALR H2O2 inh	AF4-AF9 inh	FGF22 binding
C=C(C)CSc1nc2ccccc2c(=O)n1-c1c(C)n(C)n(-c2ccccc2)c1=O	0.663	4.8	-9.4%	11.9	5.9	-3.1	1.5	-2.1	i
C[C@@H]1CN([C@@H](C)CO)C(=O)Cc2cc(NC(=O)CCC(F)(F)F)ccc2O[C@@H]1CN(C)Cc1ccc(C(=O)O)cc1	nt	nt	nt	-4.9	-20.8	-2.2	nt	-2.2	i
CCCc1nc2ccccc2c(C(=O)OCC(=O)N2CCc3ccccc32)c1CC	0.73	3.8	65.5%	7.5	7.9	9.8	-8.7	11.5	i
O=C(CN1CCCCC1)N1CCN(S(=O)(=O)c2ccccc2)C1	0.707	-5.0	nt	9.7	11.7	-1.0	-2.7	-8.7	i
COc1cccc(C#Cc2cnc3c(c2)C(=O)N([C@H](C)CO)C[C@H](C)[C@@H](CN(C)C(=O)C2CCC2)O3)c1	nt	nt	nt	-4.5	-17.1	9.4	nt	2.2	i
COc1ccc(-c2cc(C(F)F)n3ncc(C(=O)Nc4c(C)n(C)n(-c5ccccc5)c4=O)c3n2)cc1	0.74	0.6	17.9%	4.8	5.4	-9.6	4.0	-0.8	i
CCCCC1CC2=C(C(=O)OC(C)(C)O2)C(c2cccc3ccccc23)O1 (stereo not drawn)	nt	-2.2	nt	nt	nt	nt	nt	-3.3	i
C/C(CCc1ccccc1)=N\NC(=O)c1ccc(CN2CCOCC2)cc1	nt	-2.8	-1.1%	3.0	0.1	-2.1	-19.0	1.0	i
CC1CC(C)CN(C(=O)COC(=O)c2cc(S(=O)(=O)N3CCOCC3)ccc2F)C1 (stereo not drawn)	0.65	3.5	0.0%	-4.8	-0.2	-4.4	nt	-7.1	i
CC1CCN(S(=O)(=O)c2cccc(C(=O)N3CCN(c4ccc(F)cc4)CC3)c2)CC1	0.709	-1.1	nt	1.5	-40.9	1.3	5.6	3.0	i
COCC(=O)Nc1ccc2c(c1)[C@@H]1C[C@H](CC(=O)NCCc3ccccc3)O[C@H](CO)[C@@H]1O2	nt	nt	nt	2.9	2.7	-5.0	nt	0.3	i
COC(=O)C(C(=O)Nc1cccc(C)n1)C1CCCCCC1 (stereo not drawn)	0.663	7.2	13.0%	nt	nt	nt	0.1	nt	nt
C[C@@H]1CCCCO[C@@H](CN(C)Cc2ccc(C(F)(F)F)cc2)[C@H](C)CN([C@H](C)CO)C(=O)c2cc(NS(=O)(=O)c3ccc(Cl)cc3)ccc2O1	nt	nt	nt	2.8	4.0	8.2	nt	3.8	i
CCN(CCCNC(=O)CC(C(=O)N1CCc2ccccc21)n1ccnc1)c1ccccc1 (stereo not drawn)	0.681	-2.3	27.0%	nt	nt	nt	98.9*	nt	nt
CCCc1ccc2oc(C(=O)N3CCC(O)CC3)c(C)c2c1	0.665	-1.2	3.7%	-5.5	-8.5	-0.7	-10.0	1.7	i

Among those listed so far, these contain an aryl methoxy group:
SMILES	E coli growth	HNF4A DNA FP	Vif TR-FRET	Ecoli rRNA inh	Ecoli rRNA inh OD600	Ecoli rRNA inh RFP	ALR H2O2 inh	AF4-AF9 inh	FGF22 binding
COc1cccc(C#Cc2cnc3c(c2)C(=O)N([C@H](C)CO)C[C@H](C)[C@@H](CN(C)C(=O)C2CCC2)O3)c1	nt	nt	nt	-4.5	-17.1	9.4	nt	2.2	i
COc1ccc(-c2cc(C(F)F)n3ncc(C(=O)Nc4c(C)n(C)n(-c5ccccc5)c4=O)c3n2)cc1	0.74	0.6	17.9%	4.8	5.4	-9.6	4.0	-0.8	i

Continued.
SMILES	E coli growth	HNF4A DNA FP	Vif TR-FRET	Ecoli rRNA inh	Ecoli rRNA inh OD600	Ecoli rRNA inh RFP	ALR H2O2 inh	AF4-AF9 inh	FGF22 binding
CCN1CCC(CN2CCNC2=S)CC1	nt	-3.4	-0.3%	13.4	3.9	-2.0	nt	-0.3	i
CCCNC(=O)Nc1ccc2c(c1)OC[C@H](C)N(S(C)(=O)=O)C[C@@H](C)[C@H](OC)CN(C)C2=O	nt	nt	nt	-0.4	3.5	-1.2	nt	-21.2	i
O=C(C[C@H]1C=C[C@H](NC(=O)Nc2ccc3c(c2)OCO3)[C@H](CO)O1)NCc1ccc(Cl)cc1	nt	nt	nt	-6.9	-7.8	-1.5	nt	-1.5	i
COc1ccc(/C(C)=N/OCC(=O)Nc2nc3ccccc3s2)cc1OC	nt	7.8	25.6%	-25.9	-41.9	-4.1	nt	-13.9	i
Cn1c(=O)c(=O)n(C)c2cc(S(=O)(=O)CCC(=O)Nc3ccc(F)cc3)ccc21	0.76	0.7	nt	2.1	7.3	-2.1	0.9	-6.4	i
COCC(=O)Nc1ccc2c(c1)C(=O)N(C)C[C@H](OC)[C@@H](C)CN(C(=O)c1ccccc1F)[C@@H](C)CO2	nt	nt	nt	-0.3	-3.3	-0.2	nt	-0.7	i
CCCNC(=O)Nc1nc(C(N)c2ccc(OC)cc2)cs1 (stereo not drawn)	nt	-2.7	nt	7.0	6.0	1.9	nt	-0.9	i
COC(=O)c1ccc(OCc2cc(=O)n3ccsc3n2)cc1	0.724	-3.0	23.6%	nt	nt	nt	-10.1	-2.6	i
O=C(C[C@@H]1CC[C@@H]2[C@H](COC[C@@H](O)CN2S(=O)(=O)c2ccccc2)O1)N1CCOCC1	nt	nt	nt	5.7	14.9	-2.1	nt	-12.1	i
CC(=O)c1ccc(N(CC(=O)NC2CCCC2)C(=O)CNC(=O)c2ccco2)cc1	0.676	-0.1	0.6%	4.6	3.4	2.3	nt	0.7	i
COC(=O)C1CCN(C(=O)COC(=O)c2cc(-c3ccccc3)nc3ccc(OC)cc23)CC1	0.671	-3.8	6.4%	nt	nt	nt	-0.9	nt	nt
CC(=O)Nc1cccc(-c2ccnc3c2CC(C)(C(=O)NCc2ccco2)O3)c1 (stereo not drawn)	nt	0.5	nt	17.1	8.8	0.0	nt	2.9	i
CCOC(=O)C1=CC[C@@H](c2cccc(C)c2)N(S(=O)(=O)c2ccc(C)cc2)[C@H]1C(=O)OCC	nt	-1.9	nt	-3.7	-14.8	0.0	5.0	-1.5	i
COCCN(Cc1ccccc1)C(=O)c1cc(S(=O)(=O)N2CCCCCC2)ccc1OC	0.663	-5.4	-0.9%	-8.2	-10.5	2.3	3.3	-1.8	i
C[C@@H]1CCCCO[C@H](CN(C)C(=O)Cc2ccccc2)[C@@H](C)CN([C@@H](C)CO)C(=O)c2cc(N(C)C)ccc2O1	nt	nt	nt	-3.1	2.0	1.8	nt	0.1	i
C[C@@H]1CCCCO[C@@H](CN(C)S(C)(=O)=O)[C@H](C)CN([C@@H](C)CO)C(=O)c2cc(NC(=O)Cc3ccccc3)ccc2O1	nt	nt	nt	2.8	1.2	-1.2	nt	-0.1	i
C[C@H]1CN([C@@H](C)CO)C(=O)c2cc(NC(=O)C3CCCCC3)ccc2O[C@H]1CN(C)CC1CCCCC1	0.754	4.5	nt	4.8&-0.8	1.5&-21.1	-1.4&-6.2	1.0	-0.9&-5.8	i
O=C(CNC(=O)c1ccc(Cl)cc1Cl)OCC(=O)N1CCCC1=O	0.698	-1.2	2.2%	0.8	0.5	0.5	-7.0	-1.0	nt
O=C([C@H]1[C@H](CO)[C@H]2Cn3c(cccc3=O)[C@@H]1N2)N1CCc2ccccc2C1	nt	nt	nt	0.4	3.5	-2.7	nt	-1.4	i
Cc1c(Cl)cccc1NC(=S)N(CCN(C)C)C(C)c1ccccn1 (stereo not drawn)	0.704	1.6	nt	12.3	9.8	1.6	0.7	5.9	i
COC(=O)C[C@H]1CC[C@H]2[C@@H](COc3ccc(NC(=O)Nc4cccc(C#N)c4)cc3C(=O)N2C)O1	nt	nt	nt	4.9	14.0	-1.5	nt	-2.5	i
O=C(C[C@H]1CC[C@@H]2[C@H](COC[C@H](O)CN2CCC(F)(F)F)O1)NCC1CC1	nt	nt	nt	3.7	7.5	2.2	nt	-0.4	i
CC(C)(C)OC(=O)C[C@H]1C/C=C\C[C@H](CC(=O)N[C@H](CO)Cc2ccccc2)C(=O)N[C@H](C(C)(C)C)COC1=O	nt	2.3	nt	7.5	-1.9	7.0	-1.3	1.4	i
Cc1ccc(NS(=O)(=O)c2cc(-c3cc(C)no3)ccc2C(C)C)nc1	0.684	0.4	nt	-6.3	-9.8	2.1	-19.9	0.0	i
COC(=O)C1CCN(c2ccc([N+](=O)[O-])cc2)CC1	0.675	-0.3	76.0%	-3.3	-2.8	-3.3	-7.4	-6.1	i
CCOC(=O)N1CCN(C(=S)NC(=O)/C=C/c2ccc(C)cc2)CC1	0.649	2.3	nt	3.7	-13.1	-2.6	4.3	4.0	i
CCOc1ccccc1NC(=O)/C(C#N)=C/c1c(C)nn(-c2ccccc2)c1Cl	0.676	-0.9	2.3%	nt	nt	nt	7.5	nt	nt
O=C1CCc2cc(S(=O)(=O)Nc3ccc(F)cc3)cc3c2N1CC3	0.632	-3.8	3.9%	3.1	1.4	-0.7	4.5	-0.3	i
CC1Cc2cc(S(=O)(=O)N3CCC(C(=O)NCc4ccco4)CC3)ccc2N1C(=O)C1CCC1 (stereo not drawn)	0.702	-6.7	nt	-7.1	-16.4	0.2	-7.7	2.2	i
COc1cccc2cc(C(=O)N3CCC(C)CC3)c(=O)oc12	0.729	-1.2	-1.0%	5.7	6.4	-1.5	-20.7	-2.6	i
COc1ccc(CNC(=O)Cn2ccc3cc(S(=O)(=O)N4CCCC4)ccc32)cc1OC	0.71	0.8	nt	4.2	6.5	2.4	1.0	1.1	i
CC1(C(=O)NS(=O)(=O)C2CC2)CCCN(C(=O)c2c(F)cccc2F)C1 (stereo not drawn)	nt	0.8	nt	1.3	7.5	-0.9	nt	-0.5	i
CC(Oc1ccc(Br)cc1)C(=O)N(C)CC(=O)Nc1ccc(N2CCOCC2)cc1 (stereo not drawn)	0.688	5.8	-9.1%	-0.3	-7.7	0.8	98.7*	17.5	i
CO[C@@H]1CN(C)C(=O)c2ccc(NS(=O)(=O)c3ccccc3C)cc2OC[C@H](C)NC[C@@H]1C	nt	nt	nt	-1.2	-3.3	0.9	nt	-4.1	i
COc1cc2oc(=O)cc(-c3ccc(-c4ccc(O)cc4)cc3)c2c(OC)c1OC	0.708	-1.4	-8.1%	-32.1	-41.2	-5.7	nt	0.5	i
CCc1cc(=O)oc2c3c(cc(OCC(=O)NCc4ccncc4)c12)OC(C)(C)CC3	0.766	1.6	nt	nt	nt	nt	-3.0	-8.9	i
CC1(C)C[C@H](O)[C@]2(CO)[C@H](O)C[C@]3(C)C(=CCC4[C@@]5(C)CC[C@H](O)C(C)(C)C5CC[C@]43C)[C@@H]2C1 (stereo partly drawn)	nt	-3.6	nt	0.4	-1.0	1.7	-3.4	46.0*	i
O=S(=O)(c1ccc(NC(=S)Nc2ccccc2)cc1)N1CCOCC1	0.709	1.8	-7.4%	2.8	2.1	-5.4	2.6	1.8	i
Cc1nc2c(C(=O)NCc3ccc4c(c3)OCO4)c[nH]n2c(=O)c1Cl	0.651	1.5	9.9%	nt	nt	nt	11.3	nt	nt
COC(=O)c1ccc2c(c1)C(=O)/C(=C/c1ccc(C)cc1)O2	0.689	2.0	-1.0%	nt	nt	nt	-1.3	nt	nt
O=C(O)CCc1ccc(-c2ccc(Cl)cc2)n1CC(=O)O	0.681	-2.2	23.5%	1.8	2.0	-1.2	27.2	-1.2	i
Cc1nc(Oc2ccccc2)c2ccsc2n1	0.705	-0.2	-10.1%	3.6	2.8	-2.1	-2.1	0.7	+

Just FGF22 binding, for 2 of the compounds above:
| structure | FGF22 binding |
| --- | --- |
| CC1CCN(S(=O)(=O)c2cccc(C(=O)N3CCN(c4ccc(F)cc4)CC3)c2)CC1 | i |
| COCC(=O)Nc1ccc2c(c1)[C@@H]1C[C@H](CC(=O)NCCc3ccccc3)O[C@H](CO)[C@@H]1O2 | i |
